# Autofluor counter – compound fluorescence in toxin protease inhibitor counterscreen; compound autofluorescence counterscreen, microsphere flow cytometry; stronger effect = higher value; fluorescence intensity (test concentration not listed); 3.1% of 360,000 active; AID 624483;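 active means at least 3 SD above the mean of all compounds, about 16000 in these data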;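 further: 100 nL of 1 mM stock went into each well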
# PrP 5UTR inh – inhibition of PrP 5' UTR reporter expression. inhibition, % (test concentration not listed). 0.35% of 340,000 active. cell-based PrP 5' UTR mRNA reporter, plate reader. AID 488862;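 active means every replicate at 50% or more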;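 further: 0 = median of the neutral control wells; tested in H4 reporter cells; numbers are from one replicate; inactives centre near -14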
# An asterisk follows results filed as active. Only part of the results is shown, so the mix of outcomes need not match the whole.
SMILES,Autofluor counter,PrP 5UTR inh
C[C@H]1COC(=O)[C@@H](Cc2ccc(F)cc2)C/C=C\C[C@@H](CC(=O)N[C@@H](CO)Cc2ccccc2)C(=O)N1,4149,-3.5
COc1ccc([C@H]2CC(=O)C=C(c3cc(Br)ccc3OC)C2)cc1,4251,2.5
CCN(CCc1ccccc1)c1ccc2c(c1)C1CC2CCN1C(=O)OCc1ccccc1 (configuration not stated),4386,-14.1
O=C(COC(=O)CNS(=O)(=O)c1cc(C(F)(F)F)ccc1Cl)NC1CC1,3675,-18.5
COC(=O)C1=C(c2ccc(Cl)c(C(F)(F)F)c2)C[C@@H]2CC[C@H]1N2C(=O)NC(C)C,4177,-24.1
COC(=O)C1=C(c2cccc(C#N)c2)C[C@@H]2CC[C@H]1N2C(=O)NCCOc1ccc(OC)cc1,3670,-5.6
CC(C)C[C@H](NC(=O)c1[nH]cnc1C(=O)N[C@@H](C)C(=O)OCc1ccccc1)C(=O)OCc1ccccc1,4290,-21.0
CC(NC(=O)C1CCN(C(=O)Nc2ccccc2)CC1)c1ccccc1Cl (configuration not stated),3997,-5.1
Cc1ccc([C@@H]2CC=C(C(=O)O)[C@H](c3ccccc3)N2S(=O)(=O)c2ccc(C)cc2)cc1,3682,-7.6
COc1ccc(NC(=O)N(C)C[C@H]2Oc3c(NC(=O)Nc4ccc(C(F)(F)F)cc4)cccc3C(=O)N([C@H](C)CO)C[C@@H]2C)cc1,3785,-2.6
C/C(=N\Nc1ccccc1)c1cccs1,4065,-21.8
C[C@H](CO)N1C[C@H](C)[C@@H](CN(C)S(C)(=O)=O)Oc2ccc(NC(=O)CCC(F)(F)F)cc2C1=O,3261,-10.4
C=CCOc1ccccc1/C=c1\sc2nc(=O)c(C)nn2c1=O,23330*,-25.1
COc1ccc([C@H]2CC(=O)C=C(c3ccccc3Oc3ccccc3)C2)cc1,3628,-15.2
CN(C(=O)COC(=O)C12CC3CC(CC(Cl)(C3)C1)C2)C1(C#N)CCCCC1,4018,-24.7
CCOC(=O)c1cc(C)sc1/N=C/C1C(=O)NC(=S)NC1=O,3225,8.2
CC(C)C[C@H]1CNC(=S)N1CC1CCCN1C[C@H](CC(C)C)N1C[C@H](Cc2ccc(O)cc2)N(CC2CCCCCC2)C1=S (some centres not stated),2892,-22.0
COc1cc(/C=N/N2C(=O)CSC2=S)cc(Br)c1O,4565,-10.7
C[C@H](CO)N1C[C@H](C)[C@@H](CN(C)Cc2ccc(-c3ccccc3)cc2)Oc2c(NS(=O)(=O)c3cccs3)cccc2C1=O,3524,-17.9
N#Cc1ccc(OCC(=O)Nc2ccc(S(=O)(=O)N3CCOCC3)cc2)cc1,5594,2.1
Cc1noc(C)c1COc1cccc(C(=O)OC(C)C(=O)Nc2c(C)n(C)n(-c3ccccc3)c2=O)c1 (configuration not stated),4004,-8.5
O=C(N/N=C/c1cccnc1)C1CCCCC1,3933,-15.3
CNC[C@H]1Oc2ccc(NC(=O)Cc3cn(C)c4ccccc34)cc2CC(=O)N([C@@H](C)CO)C[C@H]1C,3444,-9.7
Cc1ccc(NC(=O)CN2C(=O)N/C(=C\c3ccco3)C2=O)cc1,3841,-18.1
CC(C)C[C@@H](CN1CCCC1CN1C(=S)NC[C@@H]1Cc1ccc(O)cc1)N1C[C@H](Cc2ccc(O)cc2)N(CC2CCCCCC2)C1=S (some centres not stated),4439,-20.4
NC(=S)NN=C1CCCCCCCCC1,6529,-9.7
CCN1C(=O)[C@@H]2[C@@H](c3ccc(SC4CCCCC4)c(OC)c3)N3CCCC[C@@]3(C(=O)OC)[C@@H]2C1=O,11855,14.4
COC(=O)c1ccc2c(c1)c(C#Cc1ccccc1)c(-c1ccccc1)n2C,3416,-97.7
COc1ccccc1NC(=O)C(C)OC(=O)c1cc2ccccc2[nH]1 (configuration not stated),3816,-18.3
Clc1ccccc1-c1ccc2ncnc(NCc3cccs3)c2c1,2908,2.3
COc1ccc(NC(=O)COC(=O)CO/N=C(\C)c2ccc3c(c2)OCO3)cc1S(N)(=O)=O,3372,-16.1
COC(=O)c1c(-c2ccc(SC)cc2)sc2ccccc12,2927,-45.1
Cc1nc2ccccn2c1C(=O)N/N=C/c1ccc([N+](=O)[O-])o1,4746,-43.5
COc1cc2sc3cc(NCC[C@@H]4CCCN4C)ccc3c(=O)c2cc1OC,4442,-55.7
CN(C)C(=O)c1ccc(NC(=O)c2cccc(S(=O)(=O)N3CCCCCC3)c2)cc1,3702,-31.5
CC(C)C[C@@H](CNCC(=O)[C@H](CC(=O)O)NC(=O)c1[nH]cnc1C(=O)N[C@H](CN)CC(C)C)NC(=O)c1nc[nH]c1C(=O)N[C@@H](C)C(=O)O,3725,2.1
COc1cc(C2C3=C(COC3=O)Oc3cc4c(cc32)OCO4)cc(OC)c1OC (configuration not stated),3738,49.2
CC1COCC(C)N1C1=C(Cl)C(=O)c2ccccc2C1=O (configuration not stated),3563,-12.8
CC(=O)c1ccc(N2CCN(C(=O)c3cn(Cc4ccccc4)nc3-c3cccnc3)CC2)c(F)c1,4060,-5.6
CN(C)C1=NC[C@H](Cc2ccccc2)N1CCc1cccc(F)c1,3921,-26.3
C[C@H]1COC(=O)[C@H](CC(=O)OC(C)(C)C)C/C=C\C[C@@H](CC(=O)N[C@H](CO)Cc2ccccc2)C(=O)N1,3064,-12.1
c1ccc(CN2CCc3[nH]c4ccccc4c3C2)cc1,4543,-26.9
Nc1c(Cl)ncnc1Nc1ccc(C(=O)O)cc1,2940,-26.1
C=C(C)c1nc(Oc2ccccc2)nc(Oc2ccccc2)n1,4293,-16.1
CC1(C)O[C@@H]2[C@H](O1)[C@@H](CO)O[C@H]2n1cnc2c(=O)[nH]cnc21,3888,-10.6
CC1([N+](=O)[O-])COP(=O)(NC2CCCC2)OC1 (configuration not stated),4068,-11.3
O=C(Nc1cccc(C(=O)NC2CC2)c1)c1ccccc1,3955,-8.5
CC(C)C[C@@H](CN)NC(=O)c1nc[nH]c1C(=O)N[C@@H](Cc1c[nH]c2ccccc12)C(=O)CNC[C@H](C)NC(=O)c1nc[nH]c1C(=O)N[C@@H](CC(=O)O)C(=O)O,3134,1.6
C[C@H](O)[C@@H]1C(=O)N2CCc3ccc(-c4cccc(F)c4)cc3[C@@H]2C[C@@H]1N(C)S(=O)(=O)c1ccccc1,3976,-15.5
C[C@H](C[C@H](O)[C@H]1OC1(C)C)C1=C2C[C@H](O)C3[C@@]4(C)CCC(=O)C(C)(C)C4CC[C@]3(C)[C@@]2(C)CC1 (some centres not stated),3616,-3.7
CC1(C)CC(=O)C(C2(O)C(=O)Nc3ccccc32)CO1 (configuration not stated),4468,28.8
c1ccc([C@H]2CNCCN2CCc2cccc3ccccc23)cc1,5028,-6.3
CC(c1nnc(SCC(=O)c2c(N)n(C3CC3)c(=O)[nH]c2=O)n1-c1ccc(F)cc1)N(C)C (configuration not stated),3726,-8.0
N=c1sccn1CC(=O)NCCc1ccc(Cl)cc1Cl,3523,-19.0
C/C(CCc1ccc2c(c1)OCO2)=N\N=C1\NC(=O)CC(C(=O)Nc2ccc(C(=O)O)cc2)S1 (configuration not stated),3957,-23.3
CCNc1cc2c(cc1O)CCC1C2CCC2(C)C(O)CCC12 (configuration not stated),3353,12.0
O=c1[nH]cnc2c1ncn2[C@@H]1O[C@H](COS(=O)(=O)O)[C@@H](O)[C@H]1O,3749,0.0
COc1cc(C(=O)OCc2csc(CC(=O)Nc3cc(C)ccc3C)n2)ccc1OC(F)F,2974,-8.6
CC1(C)CCC(=NNC(N)=S)CC1,3219,-13.3
C=C[C@@H]1c2cc(C)ccc2N(S(=O)(=O)c2ccc(C)cc2)[C@H](c2ccccc2)C1(C#N)C#N,2898,1.8

# As entered above:
# `Clc1ccccc1-c1ccc2ncnc(NCc3cccs3)c2c1` in Autofluor counter = 2908
# `NC(=S)NN=C1CCCCCCCCC1` in Autofluor counter = 6529
# `COc1ccccc1NC(=O)C(C)OC(=O)c1cc2ccccc2[nH]1` (configuration not stated) in PrP 5UTR inh = -18.3
# `COc1cc(/C=N/N2C(=O)CSC2=S)cc(Br)c1O` in Autofluor counter = 4565

# Further compounds:
SMILES,Autofluor counter,PrP 5UTR inh
C[C@@]12C(=O)N(c3ccccc3)C(=O)N1[C@@H]1c3ccccc3OC[C@@H]1[C@H]2c1ccccc1,4071,-11.4
CC(C)(C)OC(=O)C[C@H]1C/C=C\C[C@@H](CC(=O)NCCO)C(=O)NCCOC1=O,3676,-21.9
CC(C)(C)OC(=O)C[C@H]1C/C=C\C[C@@H](CC(=O)NCCO)C(=O)NC[C@@H](c2ccccc2)OC1=O,3610,-11.2
COC(=O)C1=C(c2ccc(F)cc2F)C[C@@H]2CC[C@H]1N2C(=O)NC1Cc2ccccc2C1,4023,-12.2
COc1cccc(-c2sc3ccccc3c2-c2ccc(OCCN3CCOCC3)cc2)c1,4274,-25.5
CC12C=CC(=O)C=C1CCC1C3CCC(O)(C(=O)CO)C3(C)CC(O)C12F (configuration not stated),3624,-2.5
CCN1CCN(C(=O)COc2ccc3oc4c(c3c2)CCCC4)CC1,4116,-7.6
O=C1C=C(c2ccc(C(=O)O)cc2)C[C@@H](c2ccc(F)cc2)C1,3571,-11.9
O=C(C[C@H]1C/C=C/CC[C@@H](Cc2ccc(F)cc2)C(=O)OC[C@H](c2ccccc2)NC1=O)NCCO,2965,-2.1
COc1cccc(-c2sc3ccc(OC)cc3c2C#CC2(O)CCCCC2)c1,2870,-21.4
C[C@@H]1O[C@@H]1P(=O)(O)O,4957,-6.5
Nn1c(-c2cccc(O)c2)nnc1-c1cccc(O)c1,4153,-11.9
O=C(NC1CC1)c1cccc(NC(=O)C2CCCC2)c1,3463,0.6
O=C(NCc1cccc(C(F)(F)F)c1)c1cccc2c1C(=O)c1ccc(N3CCC(Cc4ccccc4)CC3)cc1S2(=O)=O,9386,-15.9
C[C@]12CC[C@H](O)CC1C(=O)CC1C2CC[C@@]2(C)C1CC[C@@H]2O (some centres not stated),3726,-28.4
C[C@H](NC(=O)c1[nH]cnc1C(=O)Nc1ccon1)c1ccccc1,3114,-9.5
O=C1CC(c2ccccc2)Oc2ccccc21 (configuration not stated),5806,34.7
COc1ccccc1/C(C)=N/Oc1cc(N)cc([N+](=O)[O-])c1,3859,-20.5
COc1ccc(C[C@H](N)C(=O)N[C@H]2[C@@H](O)[C@H](n3cnc4c(N(C)C)ncnc43)O[C@@H]2CO)cc1,4092,-10.1
C[C@@H]1C(=O)O[C@H](C)[C@H]1C[C@@H](O)[C@](C)(O)C1CC[C@@]2(O)C3=CC(=O)[C@@H]4C[C@@H](O)[C@@H](O)C[C@]4(C)C3CC[C@]12C (some centres not stated),4189,-14.9
O=C1CC[C@H](O)CCN1[C@H](CSc1ccc(Br)cc1)Cc1ccccc1,2894,4.6
Cc1ccc(S(=O)(=O)N2[C@@H](c3ccccc3)C(C(=O)O)=CC[C@H]2c2ccc3c(c2)OCO3)cc1,3907,-8.6
CCN1C(C)=CC(=O)[C@@H](O)[C@H]1c1ccccc1Br,3819,-12.3
C=CC[C@@H](CC(=O)N(CCO)Cc1ccccc1)C(=O)N[C@H](COC(=O)[C@@H](CC=C)Cc1ccc(F)cc1)c1ccccc1,4053,8.5
O=C(COC(=O)COc1ccccc1)NCCC1=CCCCC1,3995,-13.0
O=S(=O)(c1ccc(Br)cc1F)N1CC[C@H](O)C1,3834,-15.9
COc1ccc(CCc2cc(OC)c(OC)c(OC)c2)cc1,3006,57.3*
O=C1NN=C(c2ccccc2)C1Cc1ccccc1 (configuration not stated),3175,-26.4
O=C(O)c1cccc2c1C(=O)c1cc(Br)ccc1S2(=O)=O,3981,-2.0
CCOc1ccc2nc3cc(N=Nc4ccc(N)nc4N)ccc3c(N)c2c1,1296,-13.5

# The last three entries of the section above come first, to join the parts:
SMILES,Autofluor counter,PrP 5UTR inh
O=C1NN=C(c2ccccc2)C1Cc1ccccc1 (configuration not stated),3175,-26.4
O=C(O)c1cccc2c1C(=O)c1cc(Br)ccc1S2(=O)=O,3981,-2.0
CCOc1ccc2nc3cc(N=Nc4ccc(N)nc4N)ccc3c(N)c2c1,1296,-13.5
Cc1c(C2(O)CCCCC2)[nH]c2ccc(C(F)(F)F)cc12,3738,-15.6
COC(=O)C1=C(c2cccc(C#N)c2)C[C@@H]2CC[C@H]1N2C(=O)NCCOc1ccccc1,4065,-18.4
CC(C)(C)OC(=O)N(CCc1ccccc1)Cc1ccccc1OCc1cccc(NC(=O)C2CC2)c1,2997,-14.8
OC[C@H]1O[C@@](CO)(O[C@H]2O[C@H](CO)[C@@H](O)[C@H](O)[C@H]2O)[C@@H](O[C@H]2O[C@H](CO)[C@@H](O)[C@H](O)[C@H]2O)[C@@H]1O,5892,-17.6
COc1cccc(-c2sc3ccc(OC)cc3c2-c2cc(F)cc(OC)c2)c1,3698,-22.0
CCCCN1CC(=O)N2[C@H]3c4cc(OC)ccc4OC[C@@H]3[C@H](C(=O)OCC)[C@]2(C)C1=O,3745,-38.8
CCSc1nsc(NC(=O)Nc2ccccc2Cl)n1,3874,-38.5
Oc1[nH]c2ccccc2c1N=Nc1ccccc1Cl,3440,-66.4
CCOCCOC(=O)c1ccc(NC(=O)c2cc3ccccc3o2)cc1,4157,-34.4
CC(C)c1ccc(/C=N/NC(=O)c2ccc(-n3cnnn3)cc2)cc1,5987,-5.1
COC(=O)C1=C(c2ccc(F)cc2OCc2ccccc2)C[C@@H]2CC[C@H]1N2C(=O)NC1CCCCC1,3740,-45.7
COC(=O)C1=C(c2ccc(-c3ccccc3)c(F)c2)C[C@@H]2CC[C@H]1N2C(=O)NCC1CC1,3013,-13.9
O=S(=O)(CCNCCc1ccccc1)NCc1ccccc1,2785,-5.8

# Compound profiles, from the list above. Order of values: Autofluor counter, PrP 5UTR inh
# CN(C)C(=O)c1ccc(NC(=O)c2cccc(S(=O)(=O)N3CCCCCC3)c2)cc1 is listed with 3702, -31.5
# NC(=S)NN=C1CCCCCCCCC1 is listed with 6529, -9.7
# O=C(NCc1cccc(C(F)(F)F)c1)c1cccc2c1C(=O)c1ccc(N3CCC(Cc4ccccc4)CC3)cc1S2(=O)=O is listed with 9386, -15.9
# CN(C)C1=NC[C@H](Cc2ccccc2)N1CCc1cccc(F)c1 is listed with 3921, -26.3
